Screening data: PubChem BioAssay, several laboratories
Autofluor counter: flagged as autofluorescent in microsphere protease counterscreen; compound autofluorescence counterscreen, microsphere flow cytometry; stronger effect = higher value; fluorescence intensity (test concentration not listed); actives 3.1% (n = 360,000);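 active = at least 3 SD above the mean of all compounds, about 16000 in these data; inconclusive = too few beads counted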;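 note: 100 nL of 1 mM stock went into each well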
PrP 5UTR inh: suppresses PrP 5' UTR mRNA reporter expression | actives 0.35% (n = 340,000) | inhibition, % (concentration not given with the values) | cell-based PrP 5' UTR mRNA reporter, plate reader;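 active = every replicate at 50% or more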;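 note: 0 = median of the neutral control wells; tested in H4 reporter cells; numbers are from one replicate; inactives centre near -14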
Sa ugtP lethal: kills S. aureus RN4220 lacking UgtP; actives 0.54% (n = 330,000); growth inhibition, % (concentration not given with the values); S. aureus RN4220 ugtP deletion, OD600 growth, 16 h; some inactives read as strong as hits;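 active = z-score under -3 and OD600 up to 0.15 on both plates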;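 note: plate controls were untreated wells for no effect and antibiotic for full effect; wells of about 80 µL received 100 nL stock; the first replicate is given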
BJeLR viability: BJeLR cell viability loss; BJeLR (HRASV12) viability, CellTiter-Glo ATP luminescence, 48 h; reference of the scale not given here; inhibition, % (no concentration beside the values); actives 0.17% (n = 300,000); AID 1554;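 active = replicate mean above 50%; inconclusive = above 50% but judged a plate artefact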;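 note: 50 nL library stock added to about 25 µL; numbers are from one replicate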
RN4220 kill: kills Staphylococcus aureus RN4220; S. aureus RN4220 growth, OD600, 16 h; inhibition, % (concentration not given with the values); actives 0.33% (n = 330,000); AID 1259311;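 active = z-score of -3 or lower and OD600 up to 0.18 on both plates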;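 note: plate controls were untreated cells for no effect and reference antibiotic for full effect; stock transfer was 100 nL into about 80 µL; one replicate is shown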
Mtb hypoxia inh: inhibitors of hypoxia-regulated fluorescent reporter in Mycobacterium tuberculosis; fluorescence inhibition, % (concentration not given with the values); M. tuberculosis hypoxia-regulated fluorescent reporter, fluorescence; actives 0.1% (n = 300,000);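 active = 35 to 45% if threefold the growth effect, above 45% if 1.5-fold the growth effect; inactive = the rest, general growth blockers included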;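 note: wells of about 50 µL received 100 nL stock; 0% = vehicle wells and 100% = reference inhibitor wells; whole bacteria with a GFP reporter of the hypoxia response; strong numbers were not always called active; many hits fall short of the cut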
Mtb hypoxia inh growth: further read-out of Mtb hypoxia inh, marked with its call; growth inhibition, %; measured here: M. tuberculosis growth (absorbance);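 0% = vehicle and 100% = reference antibiotic; read after six days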
An asterisk follows results filed as active; ? = inconclusive; . = no result given.

SMILES | Autofluor counter | PrP 5UTR inh | Sa ugtP lethal | BJeLR viability | RN4220 kill | Mtb hypoxia inh | Mtb hypoxia inh growth
COc1ccc(N2CCN(C(CNC(=O)c3ccco3)c3ccco3)CC2)cc1 (centres undefined) | ? | -21 | 10 | 6 | 3.8 | 4 | -4
COc1ccc(N2CCN(C(c3cccs3)C(C)NC(=O)C(=O)N3CCCCC3)CC2)cc1 (centres undefined) | 5888 | -13 | 5 | 3 | -2.2 | 1 | 5
O=C(CN1CC(c2ccccc2)CC1=O)Nc1ccc(F)cc1 (centres undefined) | 4402 | -9 | 3 | 2 | 1.3 | . | .
CCCCCCc1nc2ccccc2c(=O)n1NC(=O)c1c(O)c2cccc3c2n(c1=O)CCC3 | . | . | 7 | -1 | -3.1 | . | .
Cc1nc(CC(C)C)cc(C(=O)N2CCCC(CNS(=O)(=O)c3cccs3)C2)n1 (centres undefined) | 3265 | -18 | 6 | 0 | 4.6 | 9 | 0
CC(=O)COc1ccccc1OC(=O)c1ccco1 | 5780 | -35 | -2 | -7 | 2.5 | -9 | -1
COc1ccccc1C(=O)NCc1ccncc1 | 10374 | -19 | 2 | 0 | 4.3 | 9 | 5
Cc1ccc2cccc(OCc3ccc(F)cc3)c2n1 | 3466 | -16 | 13 | -12 | -0.6 | 13 | 3
COc1cc(C2C(C(C)=O)=C(O)C(=O)N2CCN2CCOCC2)ccc1O (centres undefined) | 2577 | -15 | 3 | 11 | -1.8 | 15 | 9
CCCCN(C)C(=O)Cn1nc(-c2ccc(Cl)cc2)ccc1=O | 3614 | -3 | 8 | 0 | -0.7 | 3 | 7
CN(C)C=Nc1ccc2nc3c(cc2c1)[nH]c1ccccc13 | 2751 | -65 | 12 | 9 | -9.6 | 20 | 0
Cn1c(=O)c(C(=O)CSc2ccccc2)c(N)n(Cc2ccccc2)c1=O | 3122 | -15 | 0 | -2 | 1.6 | -3 | -2
CCOC(=O)Nc1c(C)n(C)n(-c2ccccc2)c1=O | 19722* | -13 | 2 | -8 | 3.0 | 8 | 17
CCOC(=O)N1CCN(C(=O)C2CCN(S(=O)(=O)c3c(C)cc(C)cc3C)CC2)CC1 | 16613* | -7 | 1 | -9 | 4.2 | -5 | -1
COCCCNC(=O)C(=O)NCCCOC(C)C | 7501 | -34 | 2 | 15 | 1.9 | 4 | 3

Next section, starting with the last 3 of the part before.
SMILES | Autofluor counter | PrP 5UTR inh | Sa ugtP lethal | BJeLR viability | RN4220 kill | Mtb hypoxia inh | Mtb hypoxia inh growth
CCOC(=O)Nc1c(C)n(C)n(-c2ccccc2)c1=O | 19722* | -13 | 2 | -8 | 3.0 | 8 | 17
CCOC(=O)N1CCN(C(=O)C2CCN(S(=O)(=O)c3c(C)cc(C)cc3C)CC2)CC1 | 16613* | -7 | 1 | -9 | 4.2 | -5 | -1
COCCCNC(=O)C(=O)NCCCOC(C)C | 7501 | -34 | 2 | 15 | 1.9 | 4 | 3
COc1ccc(C(CNC(=O)Cc2cc(OC)c(OC)c(OC)c2)N2CCCC2)cc1 (centres undefined) | ? | -25 | 0 | 10 | 4.2 | 0 | 2
Cc1ccc(C(=O)NCCOc2cccc(C)c2)cc1 | 2064 | 5 | 6 | 11 | 2.0 | 6 | 20
CC(CN1CCC(Cc2ccccc2)CC1)C(O)c1ccc(O)cc1 (centres undefined) | . | . | 0 | . | 3.8 | 5 | 7
CC(=O)N(c1ccc(C(F)(F)F)cc1)S(=O)(=O)c1ccc(N2C(=O)CCC2=O)cc1 | 4709 | -13 | 3 | 11 | 1.5 | -1 | 7
Cc1cc2cc(C(c3nnnn3Cc3ccco3)N3CCCCC3)c(=O)[nH]c2cc1C (centres undefined) | 6371 | -29 | -1 | -16 | 1.2 | 4 | 9
Cc1nnc(SCc2ccc(C(=O)c3ccc(Cl)cc3)o2)n1-c1ccccc1 | 6942 | -7 | 2 | 4 | 2.5 | 17 | 9
Cc1ccc(-n2ncc(C#N)c2/N=C/N(C)C)cc1 | 3563 | -7 | . | 2 | . | . | .
O=C1/C(=C/c2ccc3c(c2)OCO3)N2CCC1CC2 | 1975 | -24 | -8 | -22 | 12 | 5 | 3
CCCCN1C=C(C(=O)OC)C(c2ccccc2Cl)C(C(=O)OC)=C1 | 2743 | -17 | -3 | -3 | 6.8 | 8 | 2
COc1ccccc1C(=O)NC(=O)COC(=O)c1cnc(C)cn1 | ? | -1 | -7 | 11 | -0.7 | 1 | 0
O=C(NN1C(=O)c2ccccc2C1=O)c1ccccc1[N+](=O)[O-] | 4704 | -23 | 9 | . | 6.0 | 15 | 7
CCOC(=O)C1C(C)N=C2SCC(=O)N2C1c1cccc(Br)c1 (centres undefined) | 2783 | 2 | 17 | -2 | 26 | -6 | 1
CCn1c(=O)cc(OCC(=O)N2CCN(Cc3ccc4c(c3)OCO4)CC2)c2ccccc21 | 8146 | -20 | 0 | 1 | 0.7 | 9 | 3
O=c1c2ccccc2nc(-c2ccco2)n1-c1ccc(Br)cc1 | 4091 | -12 | 16 | -1 | 2.2 | 6 | 12
COc1cc(-c2noc(C)c2-c2ccc(N(C)C)nc2)cc(OC)c1OC | 3610 | 67* | 1 | 41 | 9.5 | 2 | -7
COc1ccc(OC)c(C2=NOC(C(=O)Nc3cc(C)on3)C2)c1 (centres undefined) | 4578 | -16 | 5 | -20 | 2.7 | 1 | 12
O=c1c2c(ncn1Cc1ccccc1)nc1n2CCC1 | 2236 | -3 | 4 | 2 | 0.5 | 7 | 7
CC(C)OC(=O)c1ccc(S(N)(=O)=O)o1 | 1983 | -18 | 0 | 2 | 1.8 | 6 | -1
CC(C)NC(=O)COc1coc(CN2CCN(Cc3ccccc3)CC2)cc1=O | 5358 | -20 | 0 | -5 | 0.1 | 2 | 1
Cc1ccccc1CCNC(=O)C1CCC(=O)N(C2CCCCCC2)C1 (centres undefined) | 6062 | -14 | 8 | -5 | -1.0 | 5 | 9
COc1ccc(CNC(=S)Nc2ccc(S(N)(=O)=O)cc2)cc1 | 4574 | -4 | 1 | 0 | 1.4 | 10 | 18
CCC(=O)Nc1ccc(Cl)c(NC(=O)C(C)C)c1 | 9847 | 4 | 3 | 1 | 2.7 | -1 | 6
CCCc1nnc(SCC(=O)Nc2cc(C)on2)n1CCOC | 4343 | -10 | 5 | 7 | 3.1 | 4 | -9
COc1cccc(C=NNC(=O)CSCC(=O)Nc2ccccc2)c1O | . | . | -5 | . | 3.4 | 1 | 12
Cc1ccc(C(C)C)cc1S(=O)(=O)NC1CC(C)(C)NC(C)(C)C1 | 3641 | -11 | . | 9 | . | . | .
CC(=O)N1Cc2cc(N)ccc2Oc2ccccc21 | 2447 | -15 | 10 | 3 | 4.1 | 17 | 7
CCNc1ccc(C(=O)OCC(=O)N2CCCC2)cc1[N+](=O)[O-] | 5681 | 2 | 5 | -15 | 5.0 | 6 | 5
Cc1ccc(/C=C/C(=O)OCC(=O)NCCN2C(=O)CSC2=O)cc1 | 4090 | -7 | 4 | 5 | -0.1 | -7 | -13
COc1ccc(C(=O)Nc2ccc(-c3n[nH]c(=S)o3)cc2)cc1OC | 4784 | -15 | 0 | -13 | 8.8 | 18 | 20
COC(=O)c1cc(C(=O)NCCN2C(=O)S/C(=C\c3cccs3)C2=O)cc([N+](=O)[O-])c1 | 2018 | -33 | -17 | -6 | 4.9 | 14 | 8
CCOC(=O)C1(CCOc2ccccc2)CCN(C(C)CSC)CC1 (centres undefined) | 5105 | -8 | 5 | 2 | 5.3 | 13 | 3
CCOc1ccc(-c2nc(C)sc2CC(=O)O)cc1 | 22400* | 10 | 3 | 12 | 3.5 | -9 | 9
CN(C(=O)COc1ccccc1C(=O)NCc1ccccc1)C1CCS(=O)(=O)C1 (centres undefined) | . | -1 | 12 | . | 8.7 | 1 | 4
O=C(CSCC(=O)N1CCOCC1)Nc1nc(-c2ccccc2)cs1 | 4105 | -2 | 6 | 1 | 5.8 | -6 | -10
CC(C)(C)NC(=O)CN(Cc1cccs1)C(=O)CCN1CCc2ccccc21 | 2836 | -21 | -8 | -2 | 0.8 | -7 | -3
O=C(N1CCCCC1)N1CCN(S(=O)(=O)c2ccccc2)CC1 | . | -37 | 5 | -3 | -1.2 | 1 | -6
Cc1ccc(S(=O)(=O)NCCCNS(=O)(=O)c2ccc(C)cc2)cc1 | 5217 | -15 | 2 | . | 6.5 | 7 | 6
COc1ccc(OC)c(N(CC(=O)NCCSC2CCCCC2)S(=O)(=O)c2ccccc2)c1 | 5795 | -6 | 1 | 7 | 4.2 | 0 | -13
Cc1nc2sccn2c(=O)c1S(=O)(=O)N1CCN(c2cccc(Cl)c2)CC1 | 4611 | 2 | 14 | -3 | -3.2 | 4 | 1
COc1ccc(C(=O)N/N=C(\C)CC(=O)N2CCN(C=O)CC2)cc1 | 2389 | -17 | . | 0 | . | . | .
CCc1nc2ccccc2c(C(=O)OCc2nnc(-c3ccccc3)o2)c1C | 3731 | 4 | 13 | -2 | 4.2 | 4 | 6
CC(C)(C)c1ccc(C(=O)NN=Cc2ccccn2)cc1 | . | . | -10 | . | 5.3 | 0 | 12
COc1cc(/C=C2/C(=N)N3N=C(CC(=O)N4CCOCC4)SC3=NC2=O)ccc1OC(C)c1ccccc1 (centres undefined) | 5670 | -21 | 6 | 7 | 4.4 | 13 | 7
CCOC(=O)N1CN(C(=O)OCC)CN(C(=O)OCC)C1 | 3387 | . | 9 | 3 | 6.0 | 11 | 0
O=C1NC2(Nc3ccccc31)C(=O)Nc1ccc(Br)cc12 (centres undefined) | 4367 | -24 | 23 | 4 | 6.4 | -2 | 5

Single records, as listed above:
Shown for COc1ccc(C(=O)N/N=C(\C)CC(=O)N2CCN(C=O)CC2)cc1 = Autofluor counter = 2389; PrP 5UTR inh = -17; Sa ugtP lethal = .; BJeLR viability = 0; RN4220 kill = .; Mtb hypoxia inh = .; Mtb hypoxia inh growth = .
Shown for Cc1nc2sccn2c(=O)c1S(=O)(=O)N1CCN(c2cccc(Cl)c2)CC1 = Autofluor counter = 4611; PrP 5UTR inh = 2; Sa ugtP lethal = 14; BJeLR viability = -3; RN4220 kill = -3.2; Mtb hypoxia inh = 4; Mtb hypoxia inh growth = 1
Shown for COc1cc(/C=C2/C(=N)N3N=C(CC(=O)N4CCOCC4)SC3=NC2=O)ccc1OC(C)c1ccccc1 (centres undefined) = Autofluor counter = 5670; PrP 5UTR inh = -21; Sa ugtP lethal = 6; BJeLR viability = 7; RN4220 kill = 4.4; Mtb hypoxia inh = 13; Mtb hypoxia inh growth = 7

(listing goes on)
SMILES | Autofluor counter | PrP 5UTR inh | Sa ugtP lethal | BJeLR viability | RN4220 kill | Mtb hypoxia inh | Mtb hypoxia inh growth
CCNC(=O)n1nccc1C(C)Oc1ccccc1 (centres undefined) | 21929* | -10 | -6 | 4 | 2.7 | 10 | 14
COc1ccc(NC(=O)CN2C(=O)COc3ccc(C)cc32)cc1 | 4095 | 2 | 3 | -4 | -4.0 | 18 | 13
O=C1NC(=O)C(=Cc2ccc(-c3ccc(S(=O)(=O)N4CCOCC4)cc3)o2)C(=O)N1 | 3558 | -28 | 0 | 0 | 3.8 | 8 | -2
O=C(NCCc1c[nH]c2ccccc12)C(=O)Nc1ccccc1 | 5985 | -15 | 13 | 3 | 24 | -5 | 1
COC(C[C@@H]1O[C@@H]1[C@@H](O)[C@H](C)OCc1ccccc1)OC | 4044 | -9 | . | -6 | . | . | .
O=C1CC(C(=O)Nc2ccc(F)c(Cl)c2)N=C(N2CCCCC2)N1 (centres undefined) | 10395 | -14 | -3 | -10 | 0.1 | 3 | 30
COc1ccc(OC)c(C2C3=C(CCCC3=O)Nc3c2c(=O)n(C)c(=O)n3C)c1 (centres undefined) | 4388 | -18 | 7 | -3 | 3.5 | 12 | 10
Cc1cc(C)nc(N2CCC(C(=O)NCc3cccc(C(F)(F)F)c3)CC2)n1 | 4485 | -11 | 2 | 1 | -1.0 | 11 | 12
